# Assay outcomes as filed in PubChem.
# AmpC inh no det: Promiscuous and Specific Inhibitors of AmpC Beta-Lactamase (assay without detergent); AID 585, 2007; AmpC nitrocefin hydrolysis, absorbance 480 nm, no detergent; potencies from a single point are estimates; actives 1.8% (n = 71,000); Potency, µM (highest dose often 28.7 µM), for the others: at the top dose activity change, negative = inhibition; P00811; active = falling curve, for most hits resting on a single point; inconclusive = weak or doubtful change; inactive = flat or rising curve; note: % of control where 0% means no effect; about half of the hits show no inhibition at the top dose; a quarter of the inactives give rising signals
#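 AmpC, 20 mM phosphate pH 7.0; 15 min cpd preinc, RT; start with nitrocefin (800 uM stock); A480 kinetic read, 20 s intervals, 4 min. No-enzyme wells = negative control.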
# Starred values were filed as active, the others as inactive. Potency is the fitted concentration of half-maximal effect. The list is partial. The share of hits here may be higher or lower than overall.
SMILES | AmpC inh no det
COc1ccc(NC(=O)C=C(C)C)cc1Cl | -23%
COCCn1c(C)cc(C(=O)CSc2nc(C)cc(C)c2C#N)c1C | 65%
O=C1CC(C(=O)Nc2ccc(O)c(C(=O)O)c2)C(c2ccccc2)O1 (stereo not drawn) | -6%
CC(C)(C)SCCNS(=O)(=O)c1ccc(F)cc1 | -7%
COC(=O)c1nc(-c2ccccc2)oc1N(C)C | 7%
CCN(c1ccccc1)S(=O)(=O)c1ccc(F)cc1 | -6%
C=CCNc1ncnc2c1ncn2C1OC(CO)C(O)C1O (stereo not drawn) | -14%
CCN(CC)CCCCn1c(-c2ccccc2)nc2c(NCc3ccccc3)nc(C)nc21 | 68%
COc1cc(OC)c(C2CC(=O)N3CN(c4ccc(C)cc4)CSC3=C2C#N)cc1OC (stereo not drawn) | 36%
Cc1cccnc1NC(=O)c1c(O)c2ccccc2n(C)c1=O | -11%
c1ccc(-n2ncc3c2ncn2nc(CSc4nc5ccccc5s4)nc32)cc1 | -15%

# Random excerpt: 5 records from the list
SMILES | AmpC inh no det
c1ccc(-n2ncc3c2ncn2nc(CSc4nc5ccccc5s4)nc32)cc1 | -15%
C=CCNc1ncnc2c1ncn2C1OC(CO)C(O)C1O (stereo not drawn) | -14%
COc1ccc(NC(=O)C=C(C)C)cc1Cl | -23%
CC(C)(C)SCCNS(=O)(=O)c1ccc(F)cc1 | -7%
COCCn1c(C)cc(C(=O)CSc2nc(C)cc(C)c2C#N)c1C | 65%
